Mtb bLac sens – beta-lactam sensitization of Mtb H37Rv | M. tuberculosis H37Rv growth with meropenem, percent inhibition; hits of this screen are not shown here | inhibition, % at 25 µM | actives 0.27% (n = 330,000);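 active = about 74% or more and at least 40 points above the plate without the antibiotic, then above 30% in a dose series; inconclusive = first-round hits that could not be retested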;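 note: growth measured after seven days incubation then overnight dye step; 0% = bacteria only wells and 100% = bacteria with antibiotic; twin plates without the antibiotic show which effects depend on it; some results filed as inactive read as strong as hits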
Mtb H37Rv – M. tuberculosis H37Rv growth inhibitors, H37Rv strain (AID 1626) | M. tuberculosis H37Rv growth inhibition; higher % means a stronger effect | inhibition, % at 10 µM; hits with a dose series show IC50 in µM | actives 0.95% (n = 220,000);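 active = confirmed in a dose series; inconclusive = inhibition above 80% but not taken into the dose series; inactive = below 80% or under 30% at every dose of the series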;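 note: bacteria incubated seven days before Alamar blue readout; 0% = bacteria only wells and 100% = bacteria with antibiotic wells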
RecA intein inh – Mtb RecA intein splicing inhibition; actives 0.75% (n = 290,000); P9WHJ3; inhibition, %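 (about 9 µM by stock and volumes)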; AID 2221; cell-free RecA intein splicing, fluorescence; in the data active = inhibition above about 30%; inconclusive = no clear call, values can overlap the other calls;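 note: 0% = vehicle wells and 100% = reference inhibitor control wells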
Target sequence (P9WHJ3 whole entry, looked up): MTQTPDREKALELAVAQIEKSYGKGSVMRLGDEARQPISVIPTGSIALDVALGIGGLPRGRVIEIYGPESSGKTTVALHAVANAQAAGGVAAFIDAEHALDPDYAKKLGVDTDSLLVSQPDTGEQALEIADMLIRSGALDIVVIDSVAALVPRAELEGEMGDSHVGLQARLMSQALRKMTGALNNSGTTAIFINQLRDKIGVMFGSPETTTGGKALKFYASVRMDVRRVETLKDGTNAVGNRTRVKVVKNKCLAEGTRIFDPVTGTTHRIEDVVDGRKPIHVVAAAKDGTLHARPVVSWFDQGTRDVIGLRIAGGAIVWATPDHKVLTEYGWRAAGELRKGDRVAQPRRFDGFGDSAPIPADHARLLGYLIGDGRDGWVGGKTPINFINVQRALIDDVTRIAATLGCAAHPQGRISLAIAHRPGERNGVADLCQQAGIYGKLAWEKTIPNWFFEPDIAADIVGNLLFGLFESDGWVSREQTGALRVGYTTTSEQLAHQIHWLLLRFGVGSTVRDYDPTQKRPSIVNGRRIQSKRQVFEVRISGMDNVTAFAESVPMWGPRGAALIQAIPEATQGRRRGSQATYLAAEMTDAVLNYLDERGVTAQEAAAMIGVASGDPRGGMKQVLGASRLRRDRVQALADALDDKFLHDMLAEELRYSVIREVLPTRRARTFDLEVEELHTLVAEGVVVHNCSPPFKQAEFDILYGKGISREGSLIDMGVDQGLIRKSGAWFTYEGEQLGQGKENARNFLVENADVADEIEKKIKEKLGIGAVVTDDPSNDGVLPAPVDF
YopH PTP inh – YopH (Yersinia) phosphatase inhibition; fluorescence Ex485/Em525; inhibition, %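 (about 10 µM by stock and volumes)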; actives 0.16% (n = 140,000);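 active = inhibition of 50% or more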;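 note: controls were vehicle for no effect and minimum signal wells for full effect; inactives centre near -20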
Arbovirus anti – blocks arbovirus infection. AID 1251. actives 0.37% (n = 200,000). arbovirus infection cell-based antiviral screen. inhibition, % at 10 µM;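 active = inhibition from about 30%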;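 note: bluetongue infection of BSR cells; cell survival read as ATP light after 72 h; 0% = infected wells without compound and 100% = uninfected wells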
Arbovirus anti repeat – second read-out of Arbovirus anti, no call of its own (marks repeat the call); inhibition, %; measured here: 10K subset replicate screen; many hits read low in the repeat;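 first of two repeat runs on a subset; 0% = infected and 100% = uninfected wells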
* = called active by the depositor; u = inconclusive; x = not tested or not shown.

SMILES	Mtb bLac sens	Mtb H37Rv	RecA intein inh	YopH PTP inh	Arbovirus anti	others
O=C(COc1ccccc1)NCC(c1ccco1)N1CCN(c2ccccc2F)CC1 (configuration not stated)	4.1	x	8.0	x	x
Cc1nn(-c2ccccc2Cl)c(Cl)c1/C=N/Nc1nc2ccccc2s1	5.8	2.2%	-4.9	-33.9	-17.2
O=C(O)C1Cc2ccccc2CN1S(=O)(=O)/C=C/c1ccccc1 (configuration not stated)	-0.9	-6.5%	3.9	x	10.6
CCCOc1ccc(-c2nc(C#N)c(N3CCC(C(N)=O)CC3)o2)cc1	25.8	5.7%	-1.0	15.9	-3.9
Cc1cccc(N2C(=O)NC(=O)/C(=C/c3ccc(N4CCOCC4)cc3)C2=O)c1	-11.0	0.3%	-0.5	x	3.4
COc1ccccc1-c1cc2nc(C)c(CCC(=O)NC(C)CCc3ccco3)c(C)n2n1 (configuration not stated)	-0.3	9.3%	5.4	-55.3	-6.9
C/C(CC(=O)Nc1ccc(N(C)C)cc1)=N\NC(=O)c1ccncc1	98.7	u	-2.9	x	0.6
COc1ccc(Nc2nc3ccccc3n2C)cc1	-0.4	x	0.8	x	x
CCN1C(=O)NC(=O)/C(=C\c2cn(CC(=O)N3CCCCC3)c3ccccc23)C1=O	3.2	x	-3.6	x	x
COc1cc(Cl)c(C)cc1NC(=O)c1ccccc1NC(=O)CN1CCOCC1	8.1	x	0.6	x	x
Cc1ccc(OCC(=O)Nc2c[nH]c(=O)[nH]c2=O)cc1C	2.0	3.4%	-0.3	x	-6.8
Fc1ccc(C[n+]2c(-c3ccccc3)cc(-c3ccccc3)cc2-c2ccccc2)cc1	94.2	x	9.4	x	x
Cc1cc(/C=C2\Cc3ccccc3C2=O)c(C)n1-c1ccccc1	-1.3	7.4%	-6.6	-2.9	2.9
C=CCOc1c(Br)cc(/C=N/Nc2ccc(C(=O)O)cc2)cc1OCC	92.5	44.0%	-14.4	-35.7	31.4*
CN(CC(=O)Nc1cccc(F)c1)CC(=O)Nc1cccc(S(N)(=O)=O)c1	-8.9	-3.5%	4.1	x	x
CC(C)(C)NC(=O)C(c1ccco1)N(Cc1ccc(F)cc1)C(=O)c1snc(C(N)=O)c1N (configuration not stated)	-7.8	6.0%	-2.3	-28.1	-7.7
CSCCC(NC(=O)c1ccccc1Br)C(=O)NNC(=O)c1csc(N2CCOCC2)n1 (configuration not stated)	0.8	x	-2.0	x	x
C=CCNC(=O)/C(C#N)=C/c1cn(-c2ccccc2)nc1-c1cccs1	-1.9	-5.1%	-55.2	-27.4	-14.7
CC1=CC(=C2C(=O)c3ccccc3C2=O)C=C(C)N1Cc1ccco1	0.2	x	3.7	-28.4	-7.8
Clc1ccc(C2=CC(c3ccco3)n3ncnc3N2)cc1 (configuration not stated)	17.2	-4.6%	-383.0	-2.2	4.5
Cc1cccc(C)c1NC(=O)NN(C(=O)c1ccccc1)C(C)(C)C	-10.2	2.8%	-0.3	-22.5	1.3
Nc1ccc2c(c1)COC2=O	-11.6	2.2%	0.1	x	8.2
CCC(=O)Nc1ccc(C(=O)c2ccccc2)cc1	-6.2	16.5%	1.1	-18.7	-0.8	Arbovirus anti repeat=-2.8
C=CCSC1=N/C(=C\c2cc(OC)c3c(c2)OCO3)C(=O)S1	-10.2	-7.3%	-11.0	-22.6	-8.8
O=c1[nH]c2ccccc2n1C1CCCCC1	-4.4	x	4.8	0.5	-3.8
CCCSc1nc2c(c(=O)[nH]c(=O)n2C)n1CC(O)COc1ccccc1 (configuration not stated)	0.6	-6.2%	2.3	x	x
Cc1ccccc1NC(=O)CCNS(=O)(=O)c1ccc2c(c1)CCC(=O)N2	5.9	x	-2.1	x	x
Cc1nc2ccc(NC(=O)c3nn(CC(C)C)c(=O)c4ccccc34)cc2s1	73.5	47.8%	-1.5	8.0	-24.8
CCOCCn1ccc2c(OCC(=O)Nc3ccccc3F)cccc2c1=O	-0.6	x	-0.5	x	x
COc1ccc(N(C)C(=O)c2ccc(NC(=O)CCS(=O)(=O)c3cccs3)cc2)cc1	1.3	x	1.8	x	x
CC1=Nc2ccccc2N=C(NC(=O)CSc2nnnn2-c2ccccc2)C1c1ccccc1 (configuration not stated)	-0.1	x	3.5	-2.5	-8.3
O=C(NCCCn1ccnc1)c1cn(Cc2ccc(F)cc2)nn1	-2.9	-6.7%	-1.3	-41.8	-7.6
CS(=O)(=O)c1cccc(C(=O)Nc2nnc(C3=COCCO3)o2)c1	-1.9	x	-0.9	x	x
O=C(C1=C[C@H](c2ccccc2)C[C@H](OCCCCO)O1)N1CCN(Cc2ccccc2)CC1	-0.1	1.6%	1.1	x	1.6
Cc1ccc(S(=O)(=O)N2CCN(C(=S)NCc3ccc4c(c3)OCO4)CC2)cc1	1.9	8.2%	0.4	x	-9.9
COc1ccc(C)c(Cn2c(-c3nonc3N)nc3ccccc32)c1	-3.2	x	4.5	-9.2	-10.3
COc1c(F)c(F)c(C(=O)O)c(Nc2ccc(C)cc2)c1F	u	1.1%	2.8	-14.2	12.2
CC1=CC(=C2C=CC(=O)C=C2)C=C(C)N1C	x	3.7%	-1.3	x	x
O=C(O/N=C1/CCSc2ccccc21)c1ccc(F)cc1	u	6.1%	-4.3	-29.5	7.1
O=C(Cn1cc(S(=O)(=O)N2CCCC2)c(S(=O)(=O)N2CCCC2)c1)NCc1ccco1	0.4	x	0.2	x	x

Six records drawn at random from the list so far, as already listed:
SMILES	Mtb bLac sens	Mtb H37Rv	RecA intein inh	YopH PTP inh	Arbovirus anti	others
COc1c(F)c(F)c(C(=O)O)c(Nc2ccc(C)cc2)c1F	u	1.1%	2.8	-14.2	12.2
CC1=CC(=C2C=CC(=O)C=C2)C=C(C)N1C	x	3.7%	-1.3	x	x
O=C(NCCCn1ccnc1)c1cn(Cc2ccc(F)cc2)nn1	-2.9	-6.7%	-1.3	-41.8	-7.6
COc1ccc(C)c(Cn2c(-c3nonc3N)nc3ccccc32)c1	-3.2	x	4.5	-9.2	-10.3
Cc1ccc(S(=O)(=O)N2CCN(C(=S)NCc3ccc4c(c3)OCO4)CC2)cc1	1.9	8.2%	0.4	x	-9.9
O=C(O/N=C1/CCSc2ccccc21)c1ccc(F)cc1	u	6.1%	-4.3	-29.5	7.1

Later entries
SMILES	Mtb bLac sens	Mtb H37Rv	RecA intein inh	YopH PTP inh	Arbovirus anti	others
CCCCOc1cccc(C(=O)Nc2ccc(N3CCN(CC)CC3)cc2)c1	9.4	8.6%	2.3	-5.8	-24.9
COc1ccc(CCNC(=O)CCc2ccc(S(=O)(=O)NC(C)C)cc2)cc1	4.6	6.8%	-1.8	-14.2	1.6
O=C(/C=C/c1ccc(N2CCCCC2)c([N+](=O)[O-])c1)c1ccc(O)cc1	75.0	52.4%	14.7	x	-25.2
Cc1ccc2c(c1)C1CN(C)CCC1N2C(=O)c1cccc(S(=O)(=O)N(C)C)c1 (configuration not stated)	-4.0	1.7%	4.0	x	6.1
CCN(CC)CCn1c(-c2ccc(C)cc2)nc(=S)c2c1CC(C)(C)OC2	-6.5	-6.2%	-0.6	x	x
NS(=O)(=O)c1ccc(CCNC(=O)CSc2ncnc3ccccc23)cc1	-3.2	7.9%	4.2	x	1.6
COc1cccc(NC(=O)c2ccc(CN3CCN(c4ccccc4)CC3)cc2)c1	36.4	-1.8%	4.4	-19.8	-8.1
CCCNC(=O)c1ccc2c(=O)c(O)c(-c3cccc(Br)c3)[nH]c2c1	-16.0	4.4%	-27.3	x	x
Fc1ccc(Nc2ccc3ccccc3n2)c(F)c1	3.7	6.0%	2.3	x	2.3
CCn1c(SCC(=O)C(C)(C)C)nnc1-c1cccnc1	12.9	-5.6%	-1.7	-22.8	1.5
CCN(CCCNC(=O)C1CCC(=O)N1Cc1ccc(F)cc1)c1cccc(C)c1 (configuration not stated)	-15.4	2.3%	-6.0	-4.5	-7.7
CCN(CC)c1ccc(N)cc1S(=O)(=O)Nc1ccc(OC)cc1	-4.2	-6.5%	-0.7	x	x
Cc1cc(OCC(=O)OC(C)C)c2c3c(c(=O)oc2c1)CCCC3	18.2	-13.1%	1.0	-33.7	-2.7
CCOc1ccccc1C(=O)Nc1ccc(S(=O)(=O)N2CCN(C)CC2)cc1	6.5	x	-0.6	x	x
Cc1ccc(C(=O)OCC(=O)NCCNC(=O)COC(=O)c2ccc(C)o2)o1	0.0	x	-1.1	x	x
CCn1cc(C(=O)O)c(=O)c2cc(OC)ccc21	3.8	-7.1%	-0.7	-0.9	4.1
O=c1cc(-c2ccccc2Cl)oc2c(Br)ccc(O)c12	4.4	5.2%	0.5	-31.1	-1.6
CCOC(=O)CN(C(=O)CNC(=O)c1ccco1)C(C(=O)NC1CCCCC1)c1cccs1 (configuration not stated)	-6.0	-9.0%	0.4	-7.8	0.0
CN1CCN(C(=S)c2ccc([N+](=O)[O-])cc2)CC1	-0.7	-2.2%	-1.4	-19.4	1.2
CC(C)Sc1ccccc1C(=O)Nc1ccc2c(c1)n(C)c(=O)n2C	-3.5	x	-0.5	x	x
CC1(c2ccc3c(c2)OCO3)NC(=O)N(CC(=O)NCCC2=CCCCC2)C1=O (configuration not stated)	u	-5.9%	-0.5	-29.9	-9.7
O=[N+]([O-])c1ccc(CNc2cccc(Cl)c2)s1	0.6	x	2.0	x	x
CN(C)CCNC(=O)c1ccc(COc2ccc(Cl)cc2Cl)cc1	-12.8	-0.3%	5.5	-3.1	-34.2
COc1ccc(-c2nc(=S)c3c(n2Cc2cccnc2)CC(C)(C)OC3)cc1	-18.6	-12.3%	0.2	x	x
N#Cc1ccc(-c2ccccc2)nc1SCC(=O)c1cccc(Cl)c1	-2.8	12.6%	-1.8	-1.8	-8.9
CCCS(=O)(=O)c1c(S(=O)(=O)CCC)c2ccc(C(N)=O)cn2c1C(=O)c1ccc(OC)cc1	10.8	4.3%	0.1	x	22.1
O=C(Nc1ccc(Cl)cc1)C1=Cc2ccccc2OC1	95.8	-7.8%	5.4	-4.0	-0.5
O=C(CCSc1nnc(-c2ccncc2)o1)Nc1ccc(Cl)cc1	99.9	6.8%	-1.9	-42.2	-0.9
CC(=O)Nc1ccc(NC(=O)CSC2=NS(=O)(=O)c3cc(Cl)ccc3N2)cc1	-16.2	x	-2.1	x	x
Cn1c(=S)[nH]c2[nH]c(=O)cnc2c1=O	-0.9	2.5%	-1.2	-5.8	-1.9
O=C(COc1ccc(Br)cc1)N(CCO)CCO	7.9	-4.7%	-2.0	x	-1.2
Cc1ccc(OCc2nc3ccccc3n2C)cc1	-2.1	x	1.9	x	x
COC(=O)c1ccc(Cn2cc(Cl)cn2)o1	-10.2	0.9%	-0.9	x	x
CC(C)(C)c1ccc(-c2nnc3sc(-c4ccccn4)nn23)cc1	17.7	12.5%	4.0	-43.1	-0.8	Arbovirus anti repeat=-9.0
CN(Cc1nc(-c2cccc(Cl)c2)no1)C1CCOCC1	-2.3	2.8%	2.7	x	5.3
O=C(O)CC(Cc1ccc(Cl)cc1)C(=O)NCC12CC3CC(CC(C3)C1)C2 (configuration not stated)	-3.6	x	-6.5	x	x
O=C(O)CCc1nn2c3ccccc3n(CC(=O)O)c2nc1=O	7.1	4.0%	-1.1	x	-0.4
CCOc1ccc(NC(=S)NC(=O)/C=C/c2ccco2)cc1	97.5	x	0.1	x	x
CCOC(=O)N1CCN(CC(O)COc2ccccc2C(C)(C)C)CC1 (configuration not stated)	11.3	9.4%	0.6	-11.5	0.3
CCOC(=O)c1c(NC(=O)c2ccccc2Cl)sc2c1CCc1ccccc1-2	90.8	26.6%	x	-13.3	3.4
N#Cc1ccc(OCc2nnc(-c3ccc([N+](=O)[O-])cc3)o2)cc1	-1.6	10.7%	-0.2	x	5.9
COc1ccc(N2C(=O)CCC2=O)cc1	-10.3	0.2%	0.0	-22.3	1.9
O=C(NCCc1csc(-c2ccccc2)n1)c1c(F)cccc1F	3.0	11.2%	-0.6	x	-3.9
CC(C)(C)CC(=O)NC(=S)NCc1ccccc1	5.4	4.7%	2.3	x	-0.4
N=C1SCC(=O)N1c1ncc(Cc2ccccc2Cl)s1	x	<0.391µM*	-1.5	x	-43.0
O=C(CSc1nc2ccccc2c(=O)[nH]1)N1CCCCC1	-2.2	-4.0%	1.2	-49.5	-2.7	Arbovirus anti repeat=1.9
O=C(Cc1ccc(Cl)c(Cl)c1)Nc1ccc(S(=O)(=O)Nc2ncccn2)cc1	-1.5	x	-0.4	x	x
CC(NC(=O)CCl)c1ccc(Cl)c(Cl)c1 (configuration not stated)	99.7	61.5%	26.4	-10.9	-2.9

Bioassay records (PubChem)

This is a subset; rates above refer to the full screens.
